# From PubChem BioAssay
# HPGD inh: qHTS Assay for Inhibitors of HPGD (15-Hydroxyprostaglandin Dehydrogenase). 15-hydroxyprostaglandin dehydrogenase [NAD(+)] (Homo sapiens), P15428. purified HPGD, NADH fluorescence kinetic, PGE2 substrate. Potency, µM, without a hit: at the highest dose activity change, negative = inhibition, usual class: inhibitors. 150,000 tested, 4.3% active; active = well fitted inhibition curve with a large enough effect (not every such curve was filed as active); inconclusive = small, poorly fitted or top-dose-only effect, or another doubt; inactive = no such curve, though single readings can be large or run the other way;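 also: top concentration of the series not given in the record; plate controls included wells without enzyme; inactives centre near -10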
# Target sequence (P15428 whole entry, looked up): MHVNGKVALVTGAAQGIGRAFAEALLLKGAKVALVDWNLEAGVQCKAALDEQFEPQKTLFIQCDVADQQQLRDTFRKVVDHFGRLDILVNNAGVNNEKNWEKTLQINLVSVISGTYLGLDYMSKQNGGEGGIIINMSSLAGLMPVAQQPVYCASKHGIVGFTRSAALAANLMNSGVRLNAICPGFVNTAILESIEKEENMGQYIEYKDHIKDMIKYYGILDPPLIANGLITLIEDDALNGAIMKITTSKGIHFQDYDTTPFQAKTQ
#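 NADH formation kinetics: reaction with 30 uM PGE2 and 1 mM NAD+ (final), 20 nM enzyme, Tris-HCl pH 8 with Tween 20, after 15 min compound preincubation at room temperature. Fluorescence change, last versus first of five reads.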
# * marks the source's active call; other numbers are inactive results; u = inconclusive. % is scaled to controls: 0 for no effect and ±100 for the full control effect; potency is read from the fitted curve at half-maximal effect. These rows are one share of the data; rates above refer to the full screens.
SMILES,HPGD inh
Cc1ccc(OCC(=O)NNC(=O)CSc2nnc(-c3ccc(C)cc3)n2C)cc1,-2%
O=C(Cn1cnc2c(cnn2-c2ccc(F)cc2)c1=O)N1CCN(c2ccccc2)CC1,-20%
Nc1cc(-c2ccc(Cl)cc2)nn1S(=O)(=O)c1cccc2nsnc12,-15%
CC(C)CC(=O)NC(=S)Nc1ccccc1F,20µM*
CCOC(=O)/C(N=Nc1ccc(Cl)cc1)=C(/O)c1ccc([N+](=O)[O-])cc1,-2%
CCOc1ccc(/C(O)=C2\C(=O)C(=O)N(CCN(C)C)C2c2cccc(OC)c2OC)cc1Cl (stereo not drawn),-15%
O=C(Nc1ccc(Cl)cc1)c1cc2nc(C3CC3)cc(C(F)(F)F)n2n1,u
CCOC(=O)C(O)(CC(=O)Nc1cc(F)ccc1C)C(F)(F)F (stereo not drawn),-8%
Cc1cc(C)cc(NC(=O)CCC(=O)Nc2cc(C)on2)c1,-17%
CCc1nc(SCC(=O)N2CCC(C)CC2)c2c(=O)n(C)c(=O)n(C)c2n1,-10%
CN1C(=S)SC(C)(NO)C1(C)C (stereo not drawn),-27%
COc1cc2[nH]c(=O)n(Cc3ccccc3Cl)c(=O)c2cc1OC,-4%
COc1ccc(S(=O)(=O)N2CCCN(CCC(=O)Nc3cccc(C(F)(F)F)c3)CC2)cc1,-22%
Clc1ccc(-c2csc(N/N=C/c3ccc4c(c3)OCO4)n2)cc1,-17%
O=S(=O)(Nc1ccncc1)c1ccc(Cl)cc1,3%
Cc1ccc(C(=O)COC(=O)CNC(=O)c2cccs2)cc1,1%
N#CC(C(=O)C12CC3CC(CC(C3)C1)C2)c1nc2ccccc2[nH]1 (stereo not drawn),-21%
CCCCCCCCCCn1c2c(c(=N)c3c1CCC3)CCC2,-3%
CNC(=O)CC1C(=O)N(C)C(=S)N1NC(=O)c1ccc(Cl)cc1 (stereo not drawn),-2%
COCCCNC(=O)c1ccc2c(c1)ncn2-c1ccccc1OC,11µM*
Cc1ccc(N/C(N)=N/c2nc(C)cc(C)n2)cc1,-6%
Cn1c(=O)c2c(ncn2CC(=O)N2CCN(c3ccccc3)CC2)n(C)c1=O,-5%
COc1ccccc1NC(=O)CCN1CCN(CCC(=O)Nc2ccccc2OC)CC1,-11%
COc1ccc(-n2nnnc2/C=C\Nc2ccccc2C(=O)c2ccccc2)cc1,-26%
CCn1ccnc1C(O)c1cccc(OC)c1OC (stereo not drawn),-12%
COc1ccc(CNCc2cccc(Cl)c2)cc1,-3%
C=CCN(C(=O)CNC(=O)c1ccco1)C(C(=O)NC1CCCCC1)c1ccc(F)cc1 (stereo not drawn),-5%
Cc1ccc(-c2nnc(Nc3ccc(CC(N)=O)cc3)c3ccccc23)cc1,5%
CCCCNC(=O)CCCn1c(=O)c2ccccc2n(CC(=O)NCCC2=CCCCC2)c1=O,-15%
CC(C)Sc1nc2c(c(=O)[nH]c(=O)n2C)n1C,-8%
CCCn1c(=N)n(CC(O)c2ccco2)c2ccccc21 (stereo not drawn),-2%
N/C(=N\OS(=O)(=O)c1ccc(Cl)cc1)c1ccncc1,1%
CCC1Oc2ccc(C)cc2N(CC(=O)N(Cc2cccnc2)Cc2cccc(F)c2)C1=O (stereo not drawn),-18%
COC(=O)c1cc(OC)c(=O)c2c(OC)c(OC)ccc2c1,-5%
CCOC(=O)CSC1=C(C#N)C(c2ccc(C)o2)CC(=O)N1 (stereo not drawn),-9%
COc1ccc(CCN2C(=O)CS/C2=N/NC(=O)c2ccccc2F)cc1OC,-13%
CC(Sc1nc2cc([N+](=O)[O-])ccc2n1-c1ccc(F)cc1)C(=O)NCc1ccc2c(c1)OCO2 (stereo not drawn),u
CSCCC(C(=O)N1CC2(C)CC1CC(C)(C)C2)N1C(=O)c2ccccc2C1=O (stereo not drawn),-5%
CC(=O)Nc1c(I)cc(I)c(C(=O)O)c1I,-1%
COc1ccc(-c2[nH]ncc2/C=N\NS(=O)(=O)c2ccc(Cl)cc2)cc1,-11%
COc1cc(C=O)ccc1OCC(=O)N1CCOCC1,-3%
Cc1c(N(C)C(=O)c2ccccc2F)c(=O)n(-c2ccccc2)n1C,1%
O=C(CCCOc1ccccc1)Nc1nncs1,0%
CS(=O)(=O)N(CC(=O)Nc1ccccc1C(=O)NCc1ccccc1)c1ccc2c(c1)OCCO2,u
CCN(CC)CCCNC(=O)Cn1nc(-c2ccccc2)ccc1=O,-7%
COc1ccc2oc(=O)c(C(=O)NCc3ccccn3)cc2c1,u
Cc1ccc(C)c(N(CC(=O)NCCSCc2ccco2)S(C)(=O)=O)c1,-14%
CN(C)CCOC(c1ccc(Cl)cc1)c1ccccn1 (stereo not drawn),0%
CS(=O)(=O)N(CC(=O)NCC1CCCO1)Cc1ccc(Cl)cc1 (stereo not drawn),0%
O=C(COc1ccccc1)N1CCc2ccccc2C1,-8%
COC(=O)Nc1nnc(/C=C/c2ccccc2)s1,u
O=C(CSc1nc2cc(Cl)ccc2s1)NC1CCCc2ccccc21 (stereo not drawn),-22%
Nc1nc(N2CCN(C(=O)c3ccco3)CC2)nc2ccccc12,u
O=C(O)CCn1c(=O)[nH]c2ccccc2c1=O,u
COC(=O)Cc1ccc(NC(=S)N2CCN(c3cccc(O)c3)CC2)cc1,-2%
COc1ccc(CN(C(=O)CN2C(=O)C(C)Oc3ccccc32)C2CCCC2)c(OC)c1 (stereo not drawn),-14%
Cc1cc(Cl)c(S(=O)(=O)NCc2cccnc2)cc1OCC(N)=O,-15%
Cn1c(=O)cc(SCC(=O)NCCC2=CCCCC2)c2cc(Cl)ccc21,-18%
CCCCN(C)CCCNC(=O)CC1Oc2ccccc2NC1=O (stereo not drawn),-10%
CCOC(=O)Cc1ccc(NS(=O)(=O)c2ccc(SC)cc2)cc1,-15%

# Some of the entries so far, bar-delimited:
SMILES | HPGD inh
O=C(CCCOc1ccccc1)Nc1nncs1 | 0%
CS(=O)(=O)N(CC(=O)Nc1ccccc1C(=O)NCc1ccccc1)c1ccc2c(c1)OCCO2 | u
CCN(CC)CCCNC(=O)Cn1nc(-c2ccccc2)ccc1=O | -7%
COc1ccc2oc(=O)c(C(=O)NCc3ccccn3)cc2c1 | u
Cc1ccc(C)c(N(CC(=O)NCCSCc2ccco2)S(C)(=O)=O)c1 | -14%
CN(C)CCOC(c1ccc(Cl)cc1)c1ccccn1 (stereo not drawn) | 0%
CS(=O)(=O)N(CC(=O)NCC1CCCO1)Cc1ccc(Cl)cc1 (stereo not drawn) | 0%
O=C(COc1ccccc1)N1CCc2ccccc2C1 | -8%
COC(=O)Nc1nnc(/C=C/c2ccccc2)s1 | u
O=C(CSc1nc2cc(Cl)ccc2s1)NC1CCCc2ccccc21 (stereo not drawn) | -22%
Nc1nc(N2CCN(C(=O)c3ccco3)CC2)nc2ccccc12 | u
O=C(O)CCn1c(=O)[nH]c2ccccc2c1=O | u
COC(=O)Cc1ccc(NC(=S)N2CCN(c3cccc(O)c3)CC2)cc1 | -2%
COc1ccc(CN(C(=O)CN2C(=O)C(C)Oc3ccccc32)C2CCCC2)c(OC)c1 (stereo not drawn) | -14%
Cc1cc(Cl)c(S(=O)(=O)NCc2cccnc2)cc1OCC(N)=O | -15%

# The list continues.
SMILES,HPGD inh
O=C(O)[C@H]1CCCC[C@H]1C(=O)Nc1cc([N+](=O)[O-])ccc1F,-17%
CC(C)C(=O)NC(NC(=S)Nc1ccc(S(N)(=O)=O)cc1)C(Cl)(Cl)Cl (stereo not drawn),-10%
CCS(=O)(=O)N1N=C(c2ccc(NS(C)(=O)=O)cc2)CC1c1ccccc1 (stereo not drawn),u
C/C(CC(=O)NCc1ccco1)=N\NC(=O)Cc1ccc(Cl)cc1,-7%
COc1ccccc1-n1cnnc1SCC(=O)c1ccc[nH]1,-4%
Cc1nn(-c2ccc(F)cc2)c(Cl)c1/C=C(\CCC(=O)O)c1nc2ccccc2s1,-11%
CCOC(=O)C1CCCn2c1nc1sc3c(c1c2=O)CCCC3 (stereo not drawn),-7%
CCn1cc(C(=O)NCC2CCCO2)c(=O)c2cc(S(=O)(=O)N(C)C3CCCCC3)ccc21 (stereo not drawn),1%
CCCCN1C(=O)C(O)(CC(=O)c2ccco2)c2cc(Br)ccc21 (stereo not drawn),2%
CC(c1ccccc1)N1C(=O)c2ccccc2C1O (stereo not drawn),-8%
Cc1c(CNC2CCCC2)c(C(=O)O)c(C)n1Cc1ccccc1,-5%
CC(=O)c1ccc(N2Cc3ccccc3/C2=N\C(=O)Nc2ccc(Cl)cc2)cc1,-12%
CCOC(=O)c1ccccc1NC(=O)COC(=O)C1=COCCO1,-5%
C=CCn1c(COc2cc(C)ccc2C(C)C)nnc1SCC(=O)c1c(N)n(C)c(=O)n(C)c1=O,-14%
CCCCCC(=O)NNC(=O)Nc1ccccc1,-14%
CC(NC(=O)CSc1n[nH]c(=O)n1C1CC1)C12CC3CC(CC(C3)C1)C2 (stereo not drawn),-3%
CCOc1cc(/C=N/N=C(/N)c2nonc2N)cc(Br)c1OCc1ccc(Cl)cc1,-13%
O=C(N/N=C/c1cccs1)c1cccc2cc[nH]c12,u
COCCNC(=O)C(c1cccs1)N(C(=O)Cn1nnc2ccccc21)c1cccc(C)c1 (stereo not drawn),-19%
Brc1ccc(/C=N/Nc2ccc3ccccc3n2)cc1,-13%
O=C1O[C@H]([C@@H](O)CO)C(O)=C1O,-3%
CCOC(=O)C1CCN(S(=O)(=O)c2nc3nc(C)cc(C)n3n2)CC1,-12%
CCn1c(CNC(=O)c2cccs2)nnc1SCC(=O)Nc1cc(Cl)ccc1C,-5%
CC1=C(C(=O)OC(C)C)C(c2coc3ccccc3c2=O)C2=C(CCCC2=O)N1 (stereo not drawn),0%
CCCn1c(C(Cc2ccccc2)NC(=O)COC)nc2ccccc21 (stereo not drawn),-2%
CC1(C)CC(=O)c2sc(N)nc2C1,-8%
COc1ccccc1-c1csc(NC(=O)c2cc(-c3cccs3)nc3ccccc23)n1,-17%
CCCNC(=O)Nc1cc(OCC)c(N2CCOCC2)cc1OCC,-14%
O=C(OC1C2CCC1C1CN(CCc3ccccc3)CC12)c1ccccc1 (stereo not drawn),-5%
COc1ccccc1C(=O)N1CCNC(=O)C1CC(=O)Nc1ccc(Cl)cc1 (stereo not drawn),0%
O=C(Nc1ccc(O)cc1C(=O)O)c1ccc2c(c1)C(=O)N(Cc1ccco1)C2=O,-13%
CC(C)c1c(O)ccc2c1CCC1[C@@](C)(C=O)CCC[C@@]21C (stereo partly drawn),-18%
Cc1ccc(OCC(O)Cn2c3ccccc3c3ccccc32)cc1 (stereo not drawn),-13%
CNc1ccncc1S(=O)(=O)NC,-7%
O=C(Nc1cccc2ncccc12)c1ccc2c(c1)OCCO2,2%
N=c1n(Cc2ccc(Cl)cc2)c2ccccc2n1CC(O)c1ccco1 (stereo not drawn),-3%
COc1ccc(C(C(=O)NC2CCCCC2)N(C(=O)Cc2c[nH]c3ccccc23)c2ccccc2)cc1OC (stereo not drawn),-13%
Cc1ccc2c(c1)C(=O)C1(O)CCN(c3ccccc3)C1=N2 (stereo not drawn),-5%
Cc1cccc(N(C(=O)CNC(=O)c2ccco2)C(C(=O)NC2CCCC2)c2ccncc2)c1 (stereo not drawn),2%
Oc1ccc2ccccc2c1Cc1c(O)ccc2ccccc12,-10%
CC(C)CC(=O)Nc1cccc(NC(=O)c2ccccc2Cl)c1,-7%
Cc1c(Cl)cccc1NC(=O)Nc1ccn(C)n1,-7%
COc1ccc(CCNC(=O)Cc2cc(OC)c(OC)cc2[N+](=O)[O-])cc1OC,-8%
CSc1ccccc1C(=O)NCCSC(C)(C)C,25µM*
Cc1ccc(S(=O)(=O)N2CCN(S(=O)(=O)c3ccc(C)cc3)C2c2ccccc2)cc1,-11%
Cc1cc(=O)[nH]c(SCC(N)=O)c1C#N,-6%
CC(=O)N1c2ccccc2N(Cc2ccc(C)cc2C)C(=O)C1(C)C,-7%
Cc1sc(NC(=O)Cn2nc(C(F)(F)F)cc2C)c(C(=O)OC(C)C)c1C,-9%
COc1ccc(C2N=C(c3ccccc3)NC(c3ccccc3)=N2)cc1,-4%
CC1(C)NC(=O)N(CCOCCSc2ccccc2)C1=O,-4%
COc1cccc(CNCCc2c[nH]c3ccccc23)c1OCc1ccccc1,-9%
Cc1cc(Nc2ccc(N=Nc3ccc(O)c4ncccc34)cc2)nc(C)n1,-2%
O=C(O)CSc1nnc(-c2cc3ccccc3o2)n1-c1ccccc1,u
CN(C(=O)Cc1c[nH]c2ccccc12)C(C(=O)Nc1ccc2c(c1)OCO2)c1ccccc1 (stereo not drawn),-2%
COc1cc(-c2nnc(CSc3nnc(N)s3)o2)cc(OC)c1OC,-11%
CCOC(=O)Nc1ccc2c(c1)N(C(=O)CN(CC)CC)c1ccccc1C=C2,-11%
COc1ccc(CCNC(=O)CS(=O)Cc2nc(-c3cccs3)oc2C)cc1OC (stereo not drawn),-10%
CCOc1ccc(-n2c(SCC)nc3c(c2=O)SCC3)cc1,-8%
Cc1noc(C)c1COC(=O)c1ccc(S(=O)(=O)NCc2ccco2)cc1,u
COC(=O)c1ccccc1NC(=O)CN(C)S(=O)(=O)c1cc(C)ccc1OC,-13%
Cc1noc(C)c1C(=O)N1CCOCC1,-9%
COC(=O)/C=C/c1cccc([C@H]2[C@@H]3C=CC[C@@H](C)[C@@H]3C(=O)N2Cc2ccccc2)c1,-14%
